KCNQ2 pot – enhances the rat KCNQ2 potassium channel; CHO-K1 KCNQ2, FluxOR thallium flux fluorescence; stronger effect = higher value; B-score at 10 µM; hit rate 0.54% among 310,000; AID 2239;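 active means fluorescence ratio B-score at least 3 SD of library B-scores, with initial fluorescence B-score within 3 SD, cut at about 5.3 in these data; same plate scores as AID 2156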;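 further: B-score of peak minus minimum over baseline fluorescence ratio after K+ and Tl+ stimulus; positive B-score means potentiation of KCNQ2 with more thallium influx and brighter signal; only the inactives scoring about 0 or higher are listed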
Target sequence (O88943 whole entry, looked up): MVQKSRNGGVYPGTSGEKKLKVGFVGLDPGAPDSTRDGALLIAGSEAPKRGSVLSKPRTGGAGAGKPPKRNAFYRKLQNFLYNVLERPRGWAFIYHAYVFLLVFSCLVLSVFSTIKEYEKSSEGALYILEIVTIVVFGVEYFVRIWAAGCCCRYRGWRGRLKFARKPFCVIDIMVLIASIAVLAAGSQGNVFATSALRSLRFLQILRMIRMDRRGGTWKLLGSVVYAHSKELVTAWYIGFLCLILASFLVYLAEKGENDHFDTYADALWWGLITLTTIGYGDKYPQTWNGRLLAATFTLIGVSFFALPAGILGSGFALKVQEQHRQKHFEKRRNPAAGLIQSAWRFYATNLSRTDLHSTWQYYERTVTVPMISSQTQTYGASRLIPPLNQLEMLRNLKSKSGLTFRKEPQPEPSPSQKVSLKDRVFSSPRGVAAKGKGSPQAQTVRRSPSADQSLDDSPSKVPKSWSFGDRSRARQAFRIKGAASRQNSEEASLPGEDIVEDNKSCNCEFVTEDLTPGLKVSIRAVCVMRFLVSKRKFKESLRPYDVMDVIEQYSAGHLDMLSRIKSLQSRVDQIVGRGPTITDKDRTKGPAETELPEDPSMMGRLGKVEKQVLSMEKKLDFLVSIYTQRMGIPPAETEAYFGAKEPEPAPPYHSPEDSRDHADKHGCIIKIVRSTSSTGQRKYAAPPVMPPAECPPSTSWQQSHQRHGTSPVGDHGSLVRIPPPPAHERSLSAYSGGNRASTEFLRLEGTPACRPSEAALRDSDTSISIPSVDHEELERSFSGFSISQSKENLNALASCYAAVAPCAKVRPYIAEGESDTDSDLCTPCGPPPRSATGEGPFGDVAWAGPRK
KCNQ2 pot baseline – recorded beside KCNQ2 pot, whose call it bears; B-score; compound at 10 µM; measured here: initial fluorescence intensity artifact check;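 brightness before thallium and not channel activity; 0 = typical well and far values either way flag optical interference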
The depositor's hits bear a star. Not all compounds are listed; the hit share may differ from the screen's.

SMILES	KCNQ2 pot	KCNQ2 pot baseline
CCOC(=O)C1=C(C)Nc2nnnn2C1c1cccnc1 (centres undefined)	1.8	-0.52
COCCNC(=S)N(c1ccccc1)C(C)C	0.21	-3.1
NC(=O)CC[C@@H]1NC(=O)[C@H](Cc2ccc(O)cc2)NC(=O)c2cc([N+](=O)[O-])cc(F)c2OCC[C@@H](C(N)=O)NC1=O	1.9	1.4
CCOC(=O)C1CCCN(C(=O)COc2ccc(N(C)S(=O)(=O)c3ccc(F)cc3)cc2)C1 (centres undefined)	0.17	-0.37
CCOC(=O)c1nc(N)c(=O)n(-c2ccc(C)cc2)n1	0.66	0.02
COc1ccc(OC)c(C2Nc3c(Cl)ccc(C(=O)O)c3C3C=CCC32)c1 (centres undefined)	1.8	-1.4
O=C(NCc1cccnc1)C1CCCN(S(=O)(=O)c2ccccc2)C1 (centres undefined)	0.56	1
Cc1cccc(C)c1OCCCn1ccnc1	0.02	0.77
CCOC(=O)c1cc(-c2cccs2)nc2onc(C)c12	0.28	-0.53
CN1CCN(c2ccc(-c3cccc(NC(=O)COc4ccc(Cl)cc4)c3)nn2)CC1	1.2	-0.9
Cc1cc(C(=O)N2CCOCC2)c(C)o1	0.1	-0.94
Cc1ccc(S(=O)(=O)CCSc2ccc(C(F)(F)F)cn2)cc1	0.07	-0.18
CN[C@H](CC(=O)O)C(=O)O	1.4	0.42
CCn1cc(C(=O)N[C@H](C)c2ccccc2)c(=O)c2cc(F)c(N3CCN(C)CC3)cc21	0.3	0.11
Cc1nccc(-c2cccc(N/N=C(\C#N)C(=O)c3ccccc3)c2)n1	0.47	-1.4
CSc1nncc(/C(C)=N\Nc2ccccc2C)n1	0.01	-0.28
CCOC(=O)c1cccc(NS(=O)(=O)c2ccc(NC(C)=O)cc2)c1	0.2	0.18
C/C(=N/NC(=O)CNC(=O)COc1cccc(C)c1)c1ccc(Cl)cc1	0.65	-0.23
O=C(NCc1ccco1)c1ccc(S(=O)(=O)N2CCCc3ccccc32)cc1	0.19	0.44
O=[N+]([O-])c1ccc(NC(=S)NCc2ccncc2)cc1	1.6	-1.5
COc1ccc(C2=NC(C)(C)Cc3cc(OC)c(OC)cc32)cc1	1	-0.69
CN1C(=O)c2ccc(NC(=O)c3ccc(Cl)cc3Cl)cc2C1=O	0.4	-1.1
COCCNC(=O)COc1ccc(Nc2ccccc2)cc1	0.18	0.47
COc1ccc(S(=O)(=O)NCc2ccc(C(=O)NCCCN3CCCC(C)C3)cc2)cc1 (centres undefined)	0.14	1.8
Cc1ccc(NC(=S)N(CCN(C)C)Cc2cc3cc(C)cc(C)c3[nH]c2=O)cc1	0.07	1.1
CCOC(=O)c1ccccc1NCN1C(=O)CSC1=O	0.95	-1.1
CC1Cc2ccccc2N1C(=O)CCNS(=O)(=O)c1ccc2c(c1)CCC(=O)N2 (centres undefined)	1.3	-0.19
COc1ccc(N2CCN(C(=O)[C@@H](NC(=O)c3cc(OC)cc(OC)c3)C(C)C)CC2)cc1	0.01	0.04
CSc1ncccc1C(=O)OCC(=O)c1ccc(Br)s1	0.04	0.56
COC(=O)c1cc(Cl)c(NC(=O)c2ccco2)cc1OC	0.14	2.1
O=C(CC(C(=O)O)c1ccccc1)Nc1ccccc1 (centres undefined)	0.05	1.1
COc1ccccc1N(C)S(=O)(=O)c1ccc(Cl)c(C(=O)NCc2cccnc2)c1	1.9	-0.75
Cc1cccc(C)c1OCc1nnc(SCC(=O)Nc2cccc(C(=O)N3CCOCC3)c2)n1C	0.62	-2.2
Cc1c(C)c2ccc(OCC(=O)NCCCn3ccnc3)c(C)c2oc1=O	0.33	0.69
CCOc1ccc2nc(N3CCOCC3)nc(C)c2c1	1.7	-1.3
COc1cc(OC)nc(NC(=O)NS(=O)(=O)c2ccc(OC(F)(F)F)cc2)n1	0.67	-1.3
CC(C)c1ccc(N2C(=NC(=O)C3CC3)SC3CS(=O)(=O)CC32)cc1 (centres undefined)	0.73	-1.2
O=C(CN(c1ccccc1)S(=O)(=O)c1ccccc1[N+](=O)[O-])Nc1ccccc1C(=O)N1CCOCC1	1.1	1.1
Cc1cc(C)nc(Nc2nc(=O)c3ccccc3s2)n1	0.13	0.19
COc1ccc(C(C(=O)NCc2ccccc2)N(Cc2cccs2)C(=O)c2cnccn2)cc1 (centres undefined)	1.4	-3
CC(=O)Nc1nc2c(ccc3ccccc32)s1	0.46	0.14
CN(C)CCCNC(=O)N1c2ccccc2C=Cc2ccccc21	0.98	1.8
Cc1ccc(S(=O)(=O)N2CCOCC2)cc1NC(=O)Cn1cc(C(F)(F)F)cc(Cl)c1=O	0.07	1.1
COc1ccccc1NS(=O)(=O)c1cccc(NC(=O)c2nc3nc(C)cc(C)n3n2)c1	0.2	0.38
COc1ccc(NC(C)=O)cc1CNC(=O)CN1CCOCC1	1.2	-0.57
CC(C)CCN1C(=O)c2ccc(-c3nc4ccccc4c(=O)o3)cc2C1=O	0.03	0.97
Cc1cnc(NC(=O)CSc2nc3ccccc3c(=O)[nH]2)s1	1.2	0.37
N#CC1=C(N)Oc2cc(O)ccc2C1c1ccc(Br)s1 (centres undefined)	0.29	-0.62
Cc1cc(C)c2nc(Nc3nc(-c4ccccc4)cc(=O)[nH]3)nc(C)c2c1	2.7	-1.8
CCOc1cc(S(=O)(=O)N2CCCC2)c(C)cc1C	0.36	0.65
Cc1nc(N)sc1-c1csc(Nc2ccccn2)n1	6.8*	-0.78*
Cc1cc(C)n(-c2nc(SCC(=O)Nc3nccs3)c3c4c(sc3n2)COC(C)(C)C4)n1	0.21	-0.03
COc1ccc(CNC(=O)CCS(=O)(=O)c2ccc3c(c2)oc(=O)n3C)cc1	0.7	-0.11
COc1cc(/C=N/NC(=O)c2ccncc2)c([N+](=O)[O-])cc1OC	0.31	0.02
Cc1ccc(-n2c(C)cc(C(=O)CSc3nncs3)c2C)cc1	0.81	-2.9
Cc1cccc(NC(=O)Cn2c(=O)oc3ccccc32)c1C	0.14	-0.49
CCOc1ccc(/C=C/C(=O)N(CC)CC(=O)NCc2cccs2)cc1OC	1.1	-0.88
CCn1c(CSc2nc(C)cc(C)n2)nnc1SCC(=O)Nc1ccccc1	0.07	-0.11
Cc1ccc(NC(=O)NCCCc2ccccc2)cc1	6.3*	0.26*
CC(C)(C)NC(=O)CN(c1cccc([N+](=O)[O-])c1)S(=O)(=O)c1ccccc1	0.71	1.3
Further entries
SMILES	KCNQ2 pot	KCNQ2 pot baseline
CC(C)c1nc(SCC(=O)NCC2CCCO2)c2c(=O)n(C)c(=O)n(C)c2n1 (centres undefined)	0.95	1
O=C(Nc1ccccc1C(=O)Nc1ccc(F)cc1)c1ccco1	0.74	1.2
O=c1[nH]nc(SCc2ccccc2)c(=O)[nH]1	1.8	-0.91
CC1(c2ccc([N+](=O)[O-])cc2)NC(=O)N(CC(=O)Nc2ccc(N3CCCCC3)cc2)C1=O (centres undefined)	0.65	-0.89
COc1ccccc1C(CNC(=S)NCc1ccccc1)N1CCCC1 (centres undefined)	0.25	2
O=C(Cn1nc(C(F)(F)F)cc1C1CC1)NCc1ccccc1F	1.4	-0.23
CCOc1ccc(-c2cccc(NS(=O)(=O)c3cc([N+](=O)[O-])ccc3Cl)c2)nn1	2.8	-1.4
Cc1ccc(F)c(C2C3C=CCC(c4cccc(-c5ccc(N(C)C)cc5)c4)C3C(=O)N2Cc2ccccc2)c1 (centres undefined)	1.4	0.36
Cc1cnc(NC(=O)C2CCCC2)s1	2.1	0.84
COc1ccc(NC(=O)COc2ccc(/C=C/c3cc[n+](C)cc3)cc2OC)cc1	0.2	-0.91
C/C(=N\Nc1ccccn1)c1ccc(C#N)cc1	1.1	6
CCN(CC)C(=O)c1cc(C(C)(C)C)c(O)c(C(C)(C)C)c1	0.15	-0.24
C/C(=N\NC(=O)CCCNc1ccccc1)c1ccncc1	1	-1.7
Cc1ccc(NC(=O)c2ccc(-n3cncn3)c([N+](=O)[O-])c2)cc1F	2.4	0.1
O=C(O)C1CCN(C(=O)CCN2C(=O)S/C(=C\c3ccccc3)C2=O)CC1	1.9	-0.01
COc1ccc(CNC(=O)N2CCN(c3ccccc3)CC2)cc1	0.86	-0.02
CCOc1ccc(S(=O)(=O)Nc2cccc(C(=O)NCC(c3ccc(OC)cc3)N3CCOCC3)c2)cc1 (centres undefined)	0.21	-2.1
Cc1ccc(NNC(=O)c2ccno2)c(C)c1	1	-1.4
Cc1nc(NC(C)(C)CO)c([N+](=O)[O-])cc1[N+](=O)[O-]	0.18	-1
O=C(COC(=O)c1cc(S(=O)(=O)N2CCc3ccccc3C2)ccc1Cl)NCc1ccco1	4.6	-1.3
O=C(Nc1ccc(N=Nc2ccccc2)cc1)c1ccccc1Cl	0.69	0.72
O=C(CN(C(=O)c1csnn1)c1ccc(Br)cc1)NC1CCCCC1	1.3	0.04
O=C(c1ccc(F)cc1)c1cn(Cc2ccc(F)cc2)c2cc3c(cc2c1=O)OCCO3	0.19	-1.5
CCOC(=O)c1c(NC(=O)CCC(=O)N(CC)CC)sc2c1CC(C)(C)OC2	2.7	-0.07

By substructure, the compounds so far containing a cyano group
SMILES	KCNQ2 pot	KCNQ2 pot baseline
Cc1nccc(-c2cccc(N/N=C(\C#N)C(=O)c3ccccc3)c2)n1	0.47	-1.4
N#CC1=C(N)Oc2cc(O)ccc2C1c1ccc(Br)s1 (centres undefined)	0.29	-0.62
C/C(=N\Nc1ccccn1)c1ccc(C#N)cc1	1.1	6

Returning to the listing; the 6 compounds before the break are reprinted first.
SMILES	KCNQ2 pot	KCNQ2 pot baseline
Cc1nc(NC(C)(C)CO)c([N+](=O)[O-])cc1[N+](=O)[O-]	0.18	-1
O=C(COC(=O)c1cc(S(=O)(=O)N2CCc3ccccc3C2)ccc1Cl)NCc1ccco1	4.6	-1.3
O=C(Nc1ccc(N=Nc2ccccc2)cc1)c1ccccc1Cl	0.69	0.72
O=C(CN(C(=O)c1csnn1)c1ccc(Br)cc1)NC1CCCCC1	1.3	0.04
O=C(c1ccc(F)cc1)c1cn(Cc2ccc(F)cc2)c2cc3c(cc2c1=O)OCCO3	0.19	-1.5
CCOC(=O)c1c(NC(=O)CCC(=O)N(CC)CC)sc2c1CC(C)(C)OC2	2.7	-0.07
O=C(N[C@@H]1C[C@H]2CC[C@@H]1C2)c1ccco1	1.2	-1
CCS(=O)(=O)N1CCC(C(=O)Oc2ccc(Br)cc2)CC1	0.36	-2
COc1ccc(NC(=O)c2ccccc2C(=O)N2CCCCC2)cc1	0.37	-2.4
Cc1cc(C(=O)NC2CCN(Cc3ccccc3)CC2)n[nH]1	1.1	0.1
O=C(NNS(=O)(=O)c1ccccc1)c1sccc1-n1cccc1	0.1	0.95
C/C(CC(=O)NC1CCCCCC1)=N\NC(=O)c1cnccn1	0.48	0.42
O=C(c1nc2ccccn2c1CNCCCn1nnc2ccccc21)N1CCOCC1	0.61	-1.3
COc1ccc(C(=O)COC(=O)CN2C(=O)C3C4C=CC(C5CC45)C3C2=O)cc1 (centres undefined)	0.27	-0.1
COc1cc(OC)cc(C(=O)NC(=S)Nc2nc(-c3cc4ccccc4o3)cs2)c1	1.6	-1.3
COc1ccc(CCNC(=O)CSc2nc(=O)n3cccc(C)c3n2)cc1OC	1.2	0.69
Cc1cccc2c1cnn2C(=O)Nc1cc(F)ccc1F	0.06	-2.1
O=C(CCS(=O)(=O)c1ccc(Br)s1)NC1CCCCCC1	1.2	-0.38
COc1cc(C(=S)N2CCOCC2)ccc1OC(=O)c1ccccc1[N+](=O)[O-]	0.89	0.8
c1ccc2c(c1)oc1c(Nc3ccc4c(c3)OCCO4)ncnc12	0.11	1.3
Cc1cc(NCC(C)C)n2ncnc2n1	0.57	1.6
COC(=O)C1(C#N)C(c2ccccc2)C1(C(=O)OC)C(=O)OC (centres undefined)	0.66	-0.59
CCOCCNC(=O)c1ccc2c3c(cccc13)CC2	0.14	0.25
CCc1noc(C)c1C(=O)Nc1nc(-c2ccc(F)cc2)c(C)s1	0.86	0.67
CCOc1ncccc1C(=O)OCC(=O)c1ccc(OC)c(OC)c1	0.62	-1.1
Cc1nnc(NC(=O)CSc2nnc(-c3ccc(S(=O)(=O)N4CCCC4)cc3)n2C)s1	0.21	-1.3
CCN(CC)c1ccc(S(=O)(=O)N2CCOCC2)cc1NC(=O)CSc1nnc(N)s1	0.14	-0.11
C=CCSC1=C(C#N)C(c2ccccc2OCC)C(C#N)C(=O)N1 (centres undefined)	0.74	1.1
Cc1nnc(SCC(=O)N(C)CC(=O)Nc2ccc(F)cc2)n1Cc1ccccc1	0.1	-3.4
CCN1C(Nc2ccccc2)=NC[C@@H]1CC(C)C	0.5	-0.45
CC1CCCCN1Cc1c(O)ccc2c(=O)c(-c3ccc(Cl)cc3Cl)coc12 (centres undefined)	0.02	1.4
Cc1ccc(NC(=O)Cn2c(O)c(N=NC(N)=O)c3ccccc32)cc1	1.2	2.5
COc1ccc(C)cc1S(=O)(=O)N1CCCCC1	0.03	0.88
O=C(NCc1cccs1)C(=O)c1c[nH]c2ccccc12	0.59	-0.94
COc1ccc(S(=O)(=O)N(C)CC(=O)Nc2ccc3c(c2)OCCO3)cc1	1.9	-1.2
CC12CCC(=O)N1C(C(=O)Nc1cc(S(=O)(=O)N3CCCCCC3)ccc1OCC(F)(F)F)CS2 (centres undefined)	2.1	-1.6
O=S(=O)(Nc1ccc2c(c1)OCO2)c1ccccc1	0.45	-0.93
CCOC(=O)c1cc(CC)sc1NC(=O)CCC(=O)O	0.15	-0.48
COc1ccc(S(=O)(=O)N2CC(C(=O)O)Oc3ccccc32)cc1 (centres undefined)	0.01	0.69
COc1ccccc1N1CCN(/N=C\c2cccnc2)CC1	0.25	-1.1

Screening data (PubChem)
